YopH inh – YopH tyrosine phosphatase inhibitors, primary screen, biochemical, fluorescence Ex485/Em525. YopH tyrosine phosphatase [Yersinia enterocolitica]. inhibition, %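 (about 10 µM by stock and volumes)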. actives 0.16% (n = 140,000);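 active means inhibition of 50% or more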;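 further: controls were vehicle for no effect and minimum signal wells for full effect; inactives centre near -20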
Mtb growth – M. tuberculosis H37Rv growth inhibitors, H37Rv strain (AID 1626). M. tuberculosis H37Rv growth inhibition; higher % means a stronger effect. inhibition, % at 10 µM; hits with a dose series show IC50 in µM. actives 0.95% (n = 220,000);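 active means confirmed in a dose series; inconclusive means inhibition above 80% but not taken into the dose series; inactive means below 80% or under 30% at every dose of the series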;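 further: bacteria incubated seven days before Alamar blue readout; 0% = bacteria only wells and 100% = bacteria with antibiotic wells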
Arbovirus anti – antivirals against arbovirus infection, primary screen, cell-based, full library, 10K replicate subset | AID 1251, 2008 | actives 0.37% (n = 200,000) | arbovirus infection cell-based antiviral screen | inhibition, % at 10 µM;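 active means inhibition from about 30%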;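 further: bluetongue infection of BSR cells; cell survival read as ATP light after 72 h; 0% = infected wells without compound and 100% = uninfected wells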
Mtb betalactam – beta-lactam sensitization of Mtb H37Rv, H37Rv. M. tuberculosis H37Rv growth with meropenem, percent inhibition; hits of this screen are not shown here. inhibition, % at 25 µM. actives 0.27% (n = 330,000). AID 434955, 2010;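 active means about 74% or more and at least 40 points above the plate without the antibiotic, then above 30% in a dose series; inconclusive means first-round hits that could not be retested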;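 further: growth measured after seven days incubation then overnight dye step; 0% = bacteria only wells and 100% = bacteria with antibiotic; twin plates without the antibiotic show which effects depend on it; some results filed as inactive read as strong as hits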
RecA intein inh – Mtb RecA intein splicing inhibitors, primary screen, biochemical, fluorescence, HTS. actives 0.75% (n = 290,000). cell-free RecA intein splicing. Protein RecA (Mycobacterium tuberculosis (strain ATCC 25618 / H37Rv)), P9WHJ3. AID 2221, 2009. inhibition, %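 (about 9 µM by stock and volumes)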; in the data active means inhibition above about 30%; inconclusive means no clear call, values can overlap the other calls;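 further: 0% = vehicle wells and 100% = reference inhibitor control wells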
Target sequence (P9WHJ3 whole entry, looked up): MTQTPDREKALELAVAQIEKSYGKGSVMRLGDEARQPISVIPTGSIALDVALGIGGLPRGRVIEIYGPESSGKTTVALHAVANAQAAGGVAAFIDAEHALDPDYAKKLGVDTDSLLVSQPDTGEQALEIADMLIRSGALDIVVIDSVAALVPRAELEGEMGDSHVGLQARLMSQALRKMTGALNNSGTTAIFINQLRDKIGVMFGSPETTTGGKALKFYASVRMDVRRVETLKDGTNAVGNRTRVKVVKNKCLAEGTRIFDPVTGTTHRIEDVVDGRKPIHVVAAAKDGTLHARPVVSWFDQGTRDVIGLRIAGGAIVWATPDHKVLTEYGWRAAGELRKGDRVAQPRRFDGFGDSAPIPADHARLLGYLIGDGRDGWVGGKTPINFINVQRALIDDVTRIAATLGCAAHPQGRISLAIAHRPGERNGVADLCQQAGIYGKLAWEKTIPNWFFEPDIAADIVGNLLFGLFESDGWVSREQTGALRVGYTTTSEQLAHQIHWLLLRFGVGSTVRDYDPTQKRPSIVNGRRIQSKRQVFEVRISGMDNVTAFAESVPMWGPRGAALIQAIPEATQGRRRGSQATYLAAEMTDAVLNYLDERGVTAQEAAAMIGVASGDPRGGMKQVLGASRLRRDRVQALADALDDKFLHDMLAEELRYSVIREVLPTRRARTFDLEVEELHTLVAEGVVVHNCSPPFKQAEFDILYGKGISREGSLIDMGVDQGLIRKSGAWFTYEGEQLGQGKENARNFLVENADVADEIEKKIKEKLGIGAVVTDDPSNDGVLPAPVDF
Arbovirus anti repeat – also measured in Arbovirus anti; calls as there; inhibition, %; measured here: 10K subset replicate screen; many hits read low in the repeat;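 first of two repeat runs on a subset; 0% = infected and 100% = uninfected wells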
* hit, by the source's call; ? = inconclusive; . = no result given. The list is partial, so the mix of outcomes need not match the whole.

Start of the listing, in advance (6 entries):
SMILES	YopH inh	Mtb growth	Arbovirus anti	Mtb betalactam	RecA intein inh	others
Cc1ccccc1CS(=O)(=O)CCC(=O)O	.	0%	5	-6	-0.1
C/C(Cn1nc([N+](=O)[O-])cc1C)=N\NC(=O)COc1c(Cl)cc(Cl)cc1Cl	-22	0%	6	-4	2.4
COc1ccc([N+](=O)[O-])cc1N(CC(=O)NCCCOC(C)C)S(C)(=O)=O	.	4%	3	-1	1.7
NC(=O)COc1ccc(Cc2ncc(C(F)(F)F)cc2Cl)cc1	.	17%	-1	0	-0.2
O=C(CSC1=NS(=O)(=O)c2cc(Cl)ccc2N1)NCc1ccccc1	.	.	.	-2	0.7
O=C(N/N=C/c1ccccn1)c1ccc([N+](=O)[O-])cc1	.	6%	-9	46	-1.4

The listing (from the top)
SMILES	YopH inh	Mtb growth	Arbovirus anti	Mtb betalactam	RecA intein inh	others
Cc1ccccc1CS(=O)(=O)CCC(=O)O	.	0%	5	-6	-0.1
C/C(Cn1nc([N+](=O)[O-])cc1C)=N\NC(=O)COc1c(Cl)cc(Cl)cc1Cl	-22	0%	6	-4	2.4
COc1ccc([N+](=O)[O-])cc1N(CC(=O)NCCCOC(C)C)S(C)(=O)=O	.	4%	3	-1	1.7
NC(=O)COc1ccc(Cc2ncc(C(F)(F)F)cc2Cl)cc1	.	17%	-1	0	-0.2
O=C(CSC1=NS(=O)(=O)c2cc(Cl)ccc2N1)NCc1ccccc1	.	.	.	-2	0.7
O=C(N/N=C/c1ccccn1)c1ccc([N+](=O)[O-])cc1	.	6%	-9	46	-1.4
Cc1cc2c(cc1S(=O)(=O)N1CCOCC1)NC(=O)CO2	.	.	.	-1	-1.1
O=C(NCCCN1CCCC1=O)c1cncc(Br)c1	-15	-2%	10	1	1.5
Cc1nc(NS(=O)(=O)c2ccccc2)sc1C(C)(C)C	-25	8%	14	-6	-2.5
COCCOc1ccc(C(F)(F)F)cc1NC(=O)c1ccc(C)cc1	-21	3%	0	8	1.2
Cc1cccc(CN2CCN(c3ccccn3)CC2)c1	-23	-1%	.	5	5.4
CN(C)/N=C/c1ccc(Sc2ccccc2[N+](=O)[O-])o1	.	3%	0	8	1.9
CC(=O)Oc1c(C)cc(Cl)cc1C(=O)Nc1ccc([N+](=O)[O-])cc1Cl	-38	?	-29	100	3.3
CC(Oc1ccc(Cl)cc1Cl)C(=O)NCCC1=CCCCC1 (configuration not stated)	-36	10%	-10	22	2.2
O=c1[nH]c2ccccc2n1Cc1ccc(Cl)cc1	-12	-2%	0	12	7.3
COc1cccc(-c2ccc(SCC(=O)N3CCc4ccccc43)nn2)c1	-7	-3%	8	-4	-5.4
COc1ccc(CCNS(=O)(=O)c2cc(C(=O)O)c(Cl)cc2Cl)cc1	.	0%	2	-4	-3.9
O=S(=O)(NCC(c1cccnc1)N1CCN(c2ccc(F)cc2)CC1)c1ccccc1 (configuration not stated)	-19	-2%	.	-4	1.5
COCCCNC(=S)N/N=C/c1ccc(OC)cc1	.	-1%	.	28	-0.5
CCN(CC)C(=O)C[n+]1ccc(C(N)=O)cc1	.	-9%	2	2	.
CCOC(=O)N1CCc2c(sc(NC(=O)c3ccc(Cl)s3)c2C(N)=O)C1	-22	18%	3	93	.	Arbovirus anti repeat=-19
CC(=O)Nc1ccc(NC(=O)c2cc(-c3ccccc3)nc3ccccc23)cc1	.	.	.	9	-2.5
CC(=O)O[C@@H]1C[C@H]2C(C)(C)C(=O)C=C[C@]2(C)[C@H]2CC[C@@]3(C)[C@H](c4ccoc4)OC(=O)[C@H]4O[C@]43[C@@]21C	-30	9%	-31	80	42*
O=C(c1ccc(N2CCCCS2(=O)=O)cc1)N1CCN(c2ccc(N3CCOCC3)nn2)CC1	-45	.	3	0	-4.2	Arbovirus anti repeat=3
CCCCN(CC)Cc1c(C)[nH]c2ccccc2c1=O	-17	.	-1	-3	-2.4
(further entries)
SMILES	YopH inh	Mtb growth	Arbovirus anti	Mtb betalactam	RecA intein inh	others
CC1CCCC(NCC(=O)Nc2ccc(C(N)=O)cc2)C1C (configuration not stated)	.	-3%	0	-4	.
NNC(=O)c1ccc(CN2CCCCC2)o1	.	1%	0	-10	0.8
S=C(Nc1ccc(Br)cc1Cl)NC1CCN(Cc2ccccc2)CC1	.	14%	6	0	2.2
Cc1cc([N+](=O)[O-])nn1CC(=O)Nc1sc2c(c1C(N)=O)CCCC2	.	-2%	10	-6	-4.6
Cc1ccc(NC(=O)COC(=O)c2ccco2)cc1	.	-6%	-5	-2	5.3
CCOC(=O)C1=C(CCc2ccccc2)NC(=O)NC1c1ccc2ccccc2c1 (configuration not stated)	.	.	.	30	-2.1
CCN(CC(=O)Nc1c(F)cccc1F)C(=O)c1cccc(S(=O)(=O)N2CCc3ccccc3C2)c1	.	.	.	-12	-1.3
O=C(NCC1CCCO1)c1cnn2c1NC(c1ccccc1)CC2C(F)(F)F (configuration not stated)	-13	-10%	3	4	0.5
CCOc1ccc2nc(SCC(=O)Nc3ccc4c(c3)OCO4)sc2c1	3	25µM*	6	85	-0.4
CC1Cc2cc(-c3csc(N)n3)ccc2O1 (configuration not stated)	.	.	.	67	-4.1
Cc1ccc(OCC(COCc2ccccc2)NC(C)C)cc1 (configuration not stated)	.	.	.	0	2.4
COc1ccc(Cn2c(=O)[nH]c3cc(C(=O)NCc4ccc5c(c4)OCO5)ccc3c2=O)cc1	-35	.	-12	-12	-2.5
CC(C)Sc1ncnc2c1cnn2-c1ccccc1	.	.	.	5	10
CC(C)[C@H](Nc1ncnc2c1oc1ccccc12)C(=O)O	.	-18%	.	-9	-2.1
CN(C)c1ccc(S(=O)(=O)N(C)C)cc1[N+](=O)[O-]	.	0%	3	-9	-0.2
COc1ccc(CNC(=O)CN2C(=O)c3ccc([N+](=O)[O-])cc3C2=O)cc1	.	.	.	0	-5.1
CN(C(=O)c1ccccn1)c1nnc(-c2ccccn2)s1	-40	2%	2	-3	1.3
CCOC(=O)c1c(C)oc2c1c(C(c1cccnc1)N1CCCCC1)c(O)c1ccccc12 (configuration not stated)	0	8%	-46	88	5.4
O=S(=O)(c1ccc(Cl)s1)N1CCN(Cc2ccccc2)CC1	-40	3%	3	-11	9.9
Cc1ccc(/C=C2\CCC3=C2OC(N)=C(C#N)C3c2ccc(C)cc2)cc1 (configuration not stated)	-21	-5%	11	1	-5.7
COC(=O)C1(C)CC1(c1ccccc1)c1ccccc1 (configuration not stated)	.	.	.	-2	-0.3
c1ccc(-n2cccc2CNC2CCCCC2)cc1	-33	6%	4	2	0.6
Cc1ccc(S(=O)(=O)N2CCCCC2CCNC(=O)C(=O)NCc2ccncc2)cc1 (configuration not stated)	.	.	.	-14	0.4
O=C(O)c1ccc(N=NNc2cccc([N+](=O)[O-])c2)cc1	.	-5%	-12	6	-0.7
CN(Cc1ccccc1)C(=O)Cn1c(=O)oc2cc(S(=O)(=O)NCc3ccccc3)ccc21	-42	0%	-3	-8	-3.2
The list continues.
SMILES	YopH inh	Mtb growth	Arbovirus anti	Mtb betalactam	RecA intein inh	others
Cc1ccsc1/C=C1\CCc2ccccc2C1=O	7	-4%	1	1	7.6
COc1ccccc1C(=O)NCC(=O)NCc1cc(=O)n(C)c(=O)n1C	.	.	.	-2	-1.1
Cc1nn(C)c(Oc2cccc(Cl)c2)c1C=O	-6	0%	1	7	2.0
C/C(=C\C(=O)c1ccccc1)NNc1nc2ccccc2s1	-33	3%	7	80	.
CC(C)C(=O)Nc1cccc(NC(=S)NC(=O)c2ccc([N+](=O)[O-])cc2)c1	-38	-14%	8	5	2.6
Cc1cccn2c(=O)c3cc(C(=O)NCc4ccco4)c(=N)n(C4CCCCC4)c3nc12	.	.	.	-2	-304
O=C(c1ccccc1)c1cc(Cl)ccc1N1C(=O)C=CC1=O	.	-5%	2	.	.
NC(=S)Nc1cc2ccccc2c2ccccc12	-2	13%	-23	19	-1.3
CCOc1cc(CNC2CCCC2)c(Cl)cc1OCC(=O)Nc1ccccc1	.	7%	-5	5	-0.8
COc1ccc(NC(=O)CSc2ccc3nnc(-c4cccnc4)n3n2)c(OC)c1	.	0%	12	-4	4.9
O=S(=O)(c1ccc(-c2csc(-c3cccnc3)n2)cc1)N1CCCC1	-11	3%	-11	94	3.9
CCOc1ccc(-c2nc(S(=O)(=O)c3ccccc3)c(NC)o2)cc1	.	.	.	?	1.2
CC(C)(C)OC(=O)N1CCN(C(=O)c2[nH]cnc2C(=O)NCC(=O)OCc2ccccc2)CC1	.	.	.	-1	0.9
O=C1c2ccc([N+](=O)[O-])cc2C(=O)N1c1ccc(Cl)cn1	.	-2%	1	-1	-4.9
Cc1ccc(N2C(=O)N(Cc3ccccc3C)c3ccccc3S2(=O)=O)cc1	-20	3%	-8	3	7.0
Cc1n[nH]c(C)c1S(=O)(=O)N1CCCC(C(=O)NCc2ccc(F)cc2)C1 (configuration not stated)	.	-7%	5	2	-2.7
CCN(CC)S(=O)(=O)c1ccc(N2CCOCC2)c(NC(=O)Cc2ccccc2)c1	-9	-5%	1	0	-3.7
Cc1ncc(CN2CCC(n3nccc3NC(=O)c3ccccc3)CC2)s1	.	.	.	?	3.1
O=P(Oc1ccccc1)(Oc1ccccc1)C(O)c1ccc(Cl)cc1 (configuration not stated)	.	.	.	-13	0.1
CC1(C)NC(=O)N(CC(O)CN(Cc2ccccc2)Cc2ccccc2)C1=O (configuration not stated)	-79	-4%	1	3	0.8
O=C(O)CSc1nnc(-c2ccccc2)c(-c2ccccc2)n1	.	-4%	.	-1	3.9
Cc1ccccc1Cn1cc(NC(=O)c2nc3ncccn3n2)cn1	8	-7%	-37	-9	0.0
O=S(=O)(c1ccc(F)c(F)c1)N1CCN(Cc2ccc3c(c2)OCO3)CC1	-35	17%	-4	-1	2.3
CCN1CCCC1CNC(=O)c1c(O)c2c([nH]c1=O)CCCC2 (configuration not stated)	-45	-2%	8	-11	-0.2
CC(Cc1cccs1)NC(=O)Nc1ccc(Cl)cc1 (configuration not stated)	-2	.	3	1	-0.8

Two records drawn at random from those above:
SMILES	YopH inh	Mtb growth	Arbovirus anti	Mtb betalactam	RecA intein inh	others
Cc1ccc(NC(=O)COC(=O)c2ccco2)cc1	.	-6%	-5	-2	5.3
CC(C)C(=O)Nc1cccc(NC(=S)NC(=O)c2ccc([N+](=O)[O-])cc2)c1	-38	-14%	8	5	2.6

(more compounds)
SMILES	YopH inh	Mtb growth	Arbovirus anti	Mtb betalactam	RecA intein inh	others
O=c1c([N+](=O)[O-])c(N2CCCC2)c2ccccc2n1-c1ccccc1	.	-1%	-4	-3	-1.8
Oc1ccccc1-c1nc(NCc2ccccc2)c2ccccc2n1	.	.	.	1	-0.5
O=C(CN1C(=O)c2ccccc2C1=O)NCc1ccc(C(=O)O)cc1	.	.	.	4	-1.1
Cc1sc(NC(=O)c2ccccc2)c(C(=O)NCCN(C)C)c1C	-17	0%	8	10	-1.7
O=C(Cc1ccon1)c1ccc(O)cc1O	.	.	.	3	-1.4
Cc1ccc(NC(=O)CSc2nnc(CNC(=O)c3ccco3)n2C)cc1	.	.	.	-8	-0.8
Cc1cc(C(=O)Nc2ccc(C(=O)O)cc2)c(C)o1	.	.	.	3	-0.1
CC1(C)CC(=O)C(C=NCCN2CCN(C(=S)Nc3ccc(F)cc3)CC2)=C(O)C1	-21	-3%	13	-6	-4.6
COc1ccc(S(=O)(=O)ON=C2CC(C)(C)N(C(C)=O)C(C)(C)C2)cc1	.	0%	11	2	-3.4
N#Cc1cccc(NC(=O)CN2C(=O)NC(Cc3ccccc3)C2=O)c1 (configuration not stated)	.	-4%	.	-5	-4.0
CC(C)CCOC(=O)C1C2C=CC3(CN(Cc4cccs4)C(=O)C13)O2 (configuration not stated)	-22	-5%	-3	-6	2.9	Arbovirus anti repeat=0
O=C(NC(Cc1ccccc1)C(=O)O)/C(=C\c1cccc([N+](=O)[O-])c1)NC(=O)c1ccco1 (configuration not stated)	.	.	.	-5	-4.4
COc1cccc(/C=C/C(=O)OCC(=O)c2ccc3c(c2)NC(=O)CO3)c1OC	.	4%	5	2	.
CCN(CC)C(=O)c1oc2ccc(S(=O)(=O)N3CC(C)CC(C)C3)cc2c1C (configuration not stated)	.	.	.	-4	9.4
O=P(O)(O)c1ccccc1OCc1ccccc1	-18	-4%	7	2	-1.2
COC(=O)Cc1ccc(NC(=S)NCCCN2CCOCC2)cc1	.	37%	7	-8	-0.7
COc1nc(N/N=C/c2cc3c(cc2Br)OCO3)nc(N2CCOCC2)n1	-49	6%	-11	11	0.0
CC(C)NC(=O)CSc1nc2ccccc2n1-c1ccccc1	-19	3%	-7	49	4.4
Cc1nnc(NC(=O)CCC(=O)NCc2cccs2)s1	-103	-17%	3	1	0.8
O=C(CSc1nnc(-c2ccco2)n1Cc1ccccc1)OC1CCCCC1	-23	-12%	3	-5	2.7

Source: PubChem (several laboratories)
